HCMV UL50-53 inh: inhibitors of HCMV UL50-UL53 nuclear egress complex interaction. 190,000 tested, 0.15% active. HTRF UL50-UL53 interaction, normalized percent inhibition. AID 1918969. inhibition, % (test concentration not listed);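 active = both replicates at 50% or more, plus weaker picks with an unusually low signal ratio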;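 note: stock transfer was 100 nL into about 20 µL; 0% = negative control wells and 100% = wells with untagged competitor protein; inactives centre near -12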
GIV Gai3 FP: blocks GIV peptide binding to rat Galpha-i3; P08753; Galpha-i3/FITC-GIV peptide fluorescence polarization, 90 min; stronger effect = lower value; scaled: aluminum fluoride 0%, vehicle 100%; percent of control (FP), % (test concentration not listed); 210,000 tested, 0.42% active; AID 1224905;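 active = replicate mean at 85% of control or lower, very high polarization wells dropped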;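 note: wells of about 15 µL received 100 nL stock; the first replicate is given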
Target sequence (P08753 whole entry, looked up): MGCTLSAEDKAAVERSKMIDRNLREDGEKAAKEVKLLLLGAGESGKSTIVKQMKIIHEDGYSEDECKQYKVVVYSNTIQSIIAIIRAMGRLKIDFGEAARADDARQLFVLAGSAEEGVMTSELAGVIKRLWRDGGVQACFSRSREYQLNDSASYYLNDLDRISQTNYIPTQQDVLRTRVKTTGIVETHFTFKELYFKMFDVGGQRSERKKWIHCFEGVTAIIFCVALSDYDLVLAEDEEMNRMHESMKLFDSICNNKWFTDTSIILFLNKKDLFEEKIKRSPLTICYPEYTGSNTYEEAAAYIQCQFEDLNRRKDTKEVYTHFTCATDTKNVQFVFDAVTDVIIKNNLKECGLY
Sa growth inh: inhibitors of Staphylococcus aureus growth at 42 °C | 170,000 tested, 0.53% active | S. aureus RN4220 growth, OD600, 20 h; stronger effect = lower value | relative growth, % (test concentration not listed);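 active = growth at 42 °C up to 50% and 20 or more points under that at 30 °C, or under 10% at both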;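 note: 300 nL library stock went into each well; scaled to the means of positive and negative controls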
Sa growth inh second temp: second read-out of Sa growth inh, no call of its own (marks repeat the call); relative growth, %; measured here: growth at 30 °C;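 optical density after 20 h as mean of two plates; 100% = untreated growth and lower means inhibition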
Starred values were filed as active, the others as inactive; . = not tested or not shown. Not a hit list. Share with any hit: about 0.85%.

[1] Cc1cc(-n2nc(C)cc2C)n2nc(C(F)(F)F)c(-c3ccccc3Cl)c2n1
[2] O=c1c2ccccc2nc(-c2ccc(Cl)cc2)n1CCCCOc1ccc(F)cc1
[3] CNC(=O)CCc1nc(-c2ccc(OC)cc2)no1
[4] O=C(Nc1ccccc1)C1CC2c3ccccc3C1c1ccccc12 (stereo not drawn)
[5] Nc1ccc2nc(SCC(=O)O)sc2c1
[6] COc1cc(OC)cc(C(=O)Nc2nc3ccc4sc(C)nc4c3s2)c1
Compound,1,2,3,4,5,6
HCMV UL50-53 inh,-14,-32,3,-7,4,-38
GIV Gai3 FP,108,105,103,.,98,99
Sa growth inh,.,98,112,103,81,89
Sa growth inh second temp,.,88,103,88,68,64

[7] COc1ccc(N2CCN(C(=O)c3ccc(CS(=O)(=O)c4ccc(Br)cc4)o3)CC2)cc1
[8] CC(=O)Oc1ccc(N2C(=O)c3ccc(-c4nc5ccccc5c(=O)o4)cc3C2=O)cc1
[9] O=c1cc(CSc2nnc(Nc3ccccc3)s2)nc2sccn12
[10] FC(F)C(F)(F)COC1OCCOC1OCC(F)(F)C(F)F (stereo not drawn)
[11] COc1ccc(N=Cc2nc(-c3ccc(Br)cc3)oc2O)c([N+](=O)[O-])c1
[12] COc1ccc(-c2nc3ccccc3n2C)cc1OC
Compound,7,8,9,10,11,12
HCMV UL50-53 inh,-4,-7,-15,-9,-33,14
GIV Gai3 FP,107,107,.,.,104,109
Sa growth inh,94,105,93,75,.,98
Sa growth inh second temp,106,90,87,91,.,79

[13] O=C(CCc1nc2sc3c(c2c(=O)[nH]1)CCCC3)Nc1ccc(Cl)cc1
[14] COc1ccc(-c2nc(C#N)c(N3CCCCC3)o2)cc1
[15] O=C(CSc1nc2ccccc2c(=O)n1Cc1ccc2c(c1)OCO2)NC1CCCCC1
[16] O=C1NN=C2c3ccccc3CCC12 (stereo not drawn)
[17] O=C(NCCc1c[nH]c2ccccc12)c1ccc2c(=O)n3c(nc2c1)CCCCC3
[18] NC1=NC(=O)/C(=C/c2cccc(OC(=O)c3ccc(Cl)cc3)c2)S1
Compound,13,14,15,16,17,18
HCMV UL50-53 inh,-11,4,0,-2,2,-16
GIV Gai3 FP,100,.,102,97,.,104
Sa growth inh,.,99,81,119,101,.
Sa growth inh second temp,.,102,81,89,84,.

[19] Cc1ncc(CO)c(/C=N/N=C2\CC3CCC2(C)C3(C)C)c1O (stereo not drawn)
[20] CC1(C)CC(=O)C2=C(C1)NC1=C(C2)C(=O)CC(C)(C)C1
[21] CCc1nc2ccccc2n1CC(=O)Nc1ccccc1C#N
[22] CC1=Nc2cc(C(=O)NC3CCCC3)ccc2Sc2ccc(Cl)cc21
[23] Cc1ccc(N2C(=O)CSC23C(=O)N(CN2CCC(C)CC2)c2ccccc23)cc1C (stereo not drawn)
[24] CC(=O)Nc1ccc(-c2nc3cc(Cl)ccc3c(=O)o2)cc1
Compound,19,20,21,22,23,24
HCMV UL50-53 inh,-13,-13,-10,.,-22,-10
GIV Gai3 FP,.,.,.,107,103,101
Sa growth inh,84,110,107,116,.,96
Sa growth inh second temp,89,90,97,91,.,99

[25] COC1CCCC(C(=O)Nn2c(C3CC3)nc3ccccc3c2=O)C1 (stereo not drawn)
[26] CC1CCN(S(=O)(=O)c2ccc3c(c2)N(CC(=O)NC(C)C)C(=O)CO3)CC1
[27] Cc1ccc(C(=O)N(CCCN(C)C)c2nc3ccc(Cl)cc3s2)cc1C
[28] Cc1csc(=NC(C)C)n1/N=C/C(C)c1ccccc1 (stereo not drawn)
[29] COc1ccc(NC(=O)CSc2ncc(-c3ccccc3)o2)c(OC)c1
[30] COc1ccc(C(=O)Nc2ccc3nc(N4CCN(C)CC4)cc(C)c3c2)c(OC)c1
Compound,25,26,27,28,29,30
HCMV UL50-53 inh,-14,.,1,-8,-21,-7
GIV Gai3 FP,104,103,104,.,117,104
Sa growth inh,100,114,.,121,.,112
Sa growth inh second temp,76,82,.,78,.,60

Full records, looked up by structure. Screens in order: HCMV UL50-53 inh, GIV Gai3 FP, Sa growth inh, Sa growth inh second temp
NC1=NC(=O)/C(=C/c2cccc(OC(=O)c3ccc(Cl)cc3)c2)S1 across the screens: -16, 104, ., .
Cc1ncc(CO)c(/C=N/N=C2\CC3CCC2(C)C3(C)C)c1O (stereo not drawn) across the screens: -13, ., 84, 89
O=C1NN=C2c3ccccc3CCC12 (stereo not drawn) across the screens: -2, 97, 119, 89

(list continues)
[31] Nc1nc2c(c(=O)[nH]1)C(c1cccc(Br)c1)CC(=O)N2 (stereo not drawn)
[32] Cc1cc(C(=O)OCc2ccc(Br)cc2)c(C)o1
[33] OC(CN1CCN(CC(O)C(F)(F)F)CC1)C(F)(F)F (stereo not drawn)
[34] O=C(O)/C=C/c1ccc(-n2ccnc2)cc1
[35] Nc1cc2c(cc1C(=O)O)OCO2
[36] CCn1nc(C)c(CCN(C)C(=O)Nc2cc(OC)ccc2OC)c1C
Compound,31,32,33,34,35,36
HCMV UL50-53 inh,-14,-18,1,-43,-19,17
GIV Gai3 FP,103,.,108,.,.,103
Sa growth inh,.,88,.,98,91,.
Sa growth inh second temp,.,87,.,95,84,.

[37] CC(C)c1ccc(NC(=O)c2ccc(Cn3nc(N4CCN(c5ccccc5)CC4)ccc3=O)o2)cc1
[38] COc1cc2c(cc1OC)C(C)N(C(=O)CCCC(=O)O)CC2 (stereo not drawn)
[39] O=C(N/N=C\c1ccc(F)cc1)C(c1ccccc1)N1CCOCC1 (stereo not drawn)
[40] CCCn1c(=O)c2c(ncn2C)n(CCC)c1=O
[41] COc1ccc2oc(=O)c(C(=O)NC3CCCC3)cc2c1
[42] Cc1c(C(=O)N(C)C)sc2c1c(=O)n(Cc1ccccc1)c(=O)n2Cc1ccccc1C#N
Compound,37,38,39,40,41,42
HCMV UL50-53 inh,.,5,-18,-20,-34,.
GIV Gai3 FP,108,111,102,102,.,104
Sa growth inh,84,128,73,.,106,105
Sa growth inh second temp,99,87,86,.,68,82

[43] COc1cccc(N2CC(NC(=O)c3cccs3)CC2=O)c1 (stereo not drawn)
[44] CC1CCCCN1C(=O)CSc1nc2ccccc2c(=O)[nH]1 (stereo not drawn)
[45] Cc1ccc(NC(=O)c2ncn(-c3ccccc3)n2)cc1
[46] O=S(=O)(c1ccc(-c2ccc(S(=O)(=O)N3CCCC3)s2)s1)N1CCCC1
[47] CCCn1c2ccccc2c2nnc(SC(CC)C(=O)Nc3cc(C)on3)nc21 (stereo not drawn)
[48] CCOC(=O)c1cccc(NC(=O)Cn2ncc3c(C)n(Cc4ccc(F)cc4)c(C)c3c2=O)c1
Compound,43,44,45,46,47,48
HCMV UL50-53 inh,.,-7,-22,-2,-14,.
GIV Gai3 FP,95,101,101,108,102,108
Sa growth inh,88,110,.,103,94,128
Sa growth inh second temp,90,92,.,93,82,89

Entries by screen from the list:
Entries 19–28 in Sa growth inh second temp, in turn: 89, 90, 97, 91, ., 99, 76, 82, ., 78

(next part)
[49] O=C(CN1CCN(c2ccccc2)CC1)Nc1c(C(=O)C2CC2)oc2ccccc12
[50] CC(C)Cn1c(SCc2cccc(F)c2)nc2ccsc2c1=O
[51] ONC(=Nc1ccccc1)c1cccnc1
[52] Cc1ccc(/C=C(\C#N)C(=O)Nc2cccc(Br)c2)o1
[53] CCOc1ccc(CCNC(=O)CSCc2nc(-c3cccc(C)c3)oc2C)cc1OCC
[54] O=C(Nc1ccc(OC(F)(F)F)cc1)C1CCc2ccccc2O1 (stereo not drawn)
Compound,49,50,51,52,53,54
HCMV UL50-53 inh,17,.,-16,-23,-27,-20
GIV Gai3 FP,104,101,103,152,106,96
Sa growth inh,.,75,89,100,102,110
Sa growth inh second temp,.,77,95,84,89,91

[55] Clc1ccccc1OCc1nc(-c2cccs2)no1
[56] CCN(CC)CCN(C)Cc1c(F)cccc1F
[57] O=C(CSc1nc2ccccc2c(=O)n1C1CC1)c1ccc(F)cc1
[58] Clc1ccc(Cc2nn3c(-c4cccnc4)nnc3s2)cc1
[59] O=C1CCSc2ccccc2N1Cc1ccc(F)cc1
[60] O=C(O)CCC(=O)Nc1ccc(-c2cn3ccccc3n2)cc1
Compound,55,56,57,58,59,60
HCMV UL50-53 inh,5,-4,7,0,-1,-9
GIV Gai3 FP,109,103,94,105,105,.
Sa growth inh,97,105,94,.,.,122
Sa growth inh second temp,96,106,91,.,.,88

[61] CC1CCC(NC(=O)CN2C(=O)CCc3cc(S(=O)(=O)N4CCOCC4)ccc32)CC1 (stereo not drawn)
[62] COc1ccccc1NCc1nc2nc3c(c(=O)n2[nH]1)CCC3
[63] COCCNc1nnc(SCC(=O)c2cc(C)n(-c3ccc4c(c3)OCO4)c2C)s1
[64] COc1cc([C@@H]2c3cc4c(cc3C(O[C@@H]3O[C@@H]5CO[C@@H](c6cccs6)OC5[C@H](O)[C@H]3O)C3COC(=O)[C@@H]32)OCO4)cc(OC)c1O (stereo partly drawn)
[65] C=CCNC(=O)c1ccccc1NC(=O)c1ccccc1NS(C)(=O)=O
[66] O=C(NCc1ccc(Cl)cc1)C1(c2cccs2)CCOCC1
Compound,61,62,63,64,65,66
HCMV UL50-53 inh,-18,-16,-34,-14,-10,.
GIV Gai3 FP,107,112,.,.,105,95
Sa growth inh,.,.,63,34,116,113
Sa growth inh second temp,.,.,63,31,100,88

[67] O=C(c1cc2ccc3cccnc3c2[nH]1)N1CCN(c2ccc(F)cc2)CC1
[68] O=S(=O)(Nc1n[nH]c(C(F)(F)F)n1)c1ccccc1
[69] Cc1ccc(C)c(CN2C(=O)N(c3cc(Cl)ccc3C)S(=O)(=O)c3ccccc32)c1
[70] S=c1nccc(-c2ccc(-c3cccs3)s2)[nH]1
[71] CCc1cc2c(cc(C(=O)OC)n2Cc2cccc(OC)c2)s1
[72] O=C(NCc1ccccc1)C(=O)NCC(c1ccco1)S(=O)(=O)c1ccc(Cl)cc1 (stereo not drawn)
Compound,67,68,69,70,71,72
HCMV UL50-53 inh,6,-18,.,-148,-4,.
GIV Gai3 FP,106,.,106,113,102,97
Sa growth inh,100,86,110,118,88,124
Sa growth inh second temp,106,99,95,88,96,68

[73] CCOc1ccc(-c2cccc(NC(=O)Cc3ccc(OC)c(OC)c3)c2)nn1
[74] CC1=Cn2c(nc3ccccc3c2=O)CN1NC(=O)NC1CCCCC1
[75] COc1ccc(C(=O)CSc2nnc(C3COc4ccccc4O3)n2-c2ccccc2)cc1 (stereo not drawn)
[76] CC(C)=C1C(=O)NN(c2ccccc2)C1=O
[77] CCc1ccc(-n2nc(C)c3c(C(=O)N4CCN(c5cccc(Cl)c5)CC4)cc(C)nc32)cc1
[78] COc1ccc(C(=O)N(CC(=O)NC2CCCC2)C2CCCCC2)cc1OC
Compound,73,74,75,76,77,78
HCMV UL50-53 inh,-25,3,-16,-3,.,-7
GIV Gai3 FP,106,.,104,110,108,102
Sa growth inh,86,89,.,95,107,113
Sa growth inh second temp,75,90,.,77,102,80

[79] CCOc1ccc(CN2CCc3nc(N4CCN(c5ncccn5)CC4)ncc3C2)cc1OC
[80] CCOC(=O)c1sc(NC(=O)c2cc3nc(-c4ccccc4)cc(C(F)(F)F)n3n2)c(C(=O)OCC)c1C
[81] CCCn1c(=N)n(CC(=O)C(C)(C)C)c2ccccc21
[82] CC1CCCC(C)N1CCCNC(=O)C1c2ccccc2C(=O)N1CCc1ccc(Cl)cc1 (stereo not drawn)
[83] Cc1cccc(-c2noc(-c3cc(-c4ccc(F)cc4)n[nH]3)n2)c1
[84] O=C1NC(=Nc2ccccc2Cl)S/C1=C\c1ccc2c(c1)OCO2
Compound,79,80,81,82,83,84
HCMV UL50-53 inh,.,-14,-11,.,.,-6
GIV Gai3 FP,104,107,103,103,109,96
Sa growth inh,83,97,114,158,88,.
Sa growth inh second temp,83,83,87,88,96,.

[85] Cc1cc(C)c(N=C(NN)N(C)C)cc1C
[86] O=C(O)CCc1nc2ccccc2n1-c1ccccc1
[87] COC(=O)c1sccc1N/N=C(\C#N)S(=O)(=O)c1cccs1
[88] O=C(Nc1ccc(F)cc1)Nc1ccc2nc3n(c(=O)c2c1)CCC3
[89] Cc1nc2nc3c(c(Nc4ccc(Br)cc4)n2n1)CCC3
[90] COC(=O)C1=C(C)NC(=O)NC1c1cc2c(cc1Cl)OCO2 (stereo not drawn)
Compound,85,86,87,88,89,90
HCMV UL50-53 inh,-33,-15,-94,1,7,-1
GIV Gai3 FP,101,.,107,100,98,108
Sa growth inh,118,119,102,.,.,91
Sa growth inh second temp,87,85,53,.,.,91

[91] Cc1cc2oc(=O)cc(-c3cc4ccccc4o3)c2cc1OCC(N)=O
[92] C=CCn1c(P(=O)(O)c2ccccc2)nc2ccccc21
[93] Cc1ncc(CO)c(/C=N/O)c1O
[94] NC(=O)C1CCCN(C(=O)NC2CCCCC2)C1 (stereo not drawn)
[95] CCOC(=O)C1CCN(c2cc(C(F)(F)F)nc3ccc(C)cc23)CC1
[96] CCOC(=O)CN1C(=O)N(Cc2ccc(F)cc2)S(=O)(=O)c2ccccc21
[97] CCCN(CCC)S(=O)(=O)c1ccc(F)c(C(=O)Nc2cc(C)ccc2OC)c1
[98] COc1ccc(S(=O)(=O)NCc2cccn2Cc2cccc(F)c2)cc1
Compound,91,92,93,94,95,96,97,98
HCMV UL50-53 inh,-45,6,-8,.,-20,-27,.,-26
GIV Gai3 FP,104,.,101,103,100,104,103,109
Sa growth inh,89,100,104,80,109,94,98,.
Sa growth inh second temp,87,91,103,95,86,89,97,.

Compound activity deposited in PubChem BioAssay by ICCB-Longwood Screening Facility, Harvard Medical School.
